High-throughput results from PubChem.
Mtb betalactam = beta-lactam sensitization of Mtb H37Rv; M. tuberculosis H37Rv growth with meropenem, percent inhibition; hits of this screen are not shown here; inhibition, % at 25 µM; actives 0.27% (n = 330,000); AID 434955;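 active = about 74% or more and at least 40 points above the plate without the antibiotic, then above 30% in a dose series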;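 also: growth measured after seven days incubation then overnight dye step; 0% = bacteria only wells and 100% = bacteria with antibiotic; twin plates without the antibiotic show which effects depend on it; some results filed as inactive read as strong as hits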
RecA splice inh = blocks M. tuberculosis RecA intein splicing; inhibition, %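 (about 9 µM by stock and volumes)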; P9WHJ3; cell-free RecA intein splicing, fluorescence; AID 2221; actives 0.75% (n = 290,000); in the data active = inhibition above about 30%;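 also: 0% = vehicle wells and 100% = reference inhibitor control wells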
Target sequence (P9WHJ3 whole entry, looked up, canonical isoform): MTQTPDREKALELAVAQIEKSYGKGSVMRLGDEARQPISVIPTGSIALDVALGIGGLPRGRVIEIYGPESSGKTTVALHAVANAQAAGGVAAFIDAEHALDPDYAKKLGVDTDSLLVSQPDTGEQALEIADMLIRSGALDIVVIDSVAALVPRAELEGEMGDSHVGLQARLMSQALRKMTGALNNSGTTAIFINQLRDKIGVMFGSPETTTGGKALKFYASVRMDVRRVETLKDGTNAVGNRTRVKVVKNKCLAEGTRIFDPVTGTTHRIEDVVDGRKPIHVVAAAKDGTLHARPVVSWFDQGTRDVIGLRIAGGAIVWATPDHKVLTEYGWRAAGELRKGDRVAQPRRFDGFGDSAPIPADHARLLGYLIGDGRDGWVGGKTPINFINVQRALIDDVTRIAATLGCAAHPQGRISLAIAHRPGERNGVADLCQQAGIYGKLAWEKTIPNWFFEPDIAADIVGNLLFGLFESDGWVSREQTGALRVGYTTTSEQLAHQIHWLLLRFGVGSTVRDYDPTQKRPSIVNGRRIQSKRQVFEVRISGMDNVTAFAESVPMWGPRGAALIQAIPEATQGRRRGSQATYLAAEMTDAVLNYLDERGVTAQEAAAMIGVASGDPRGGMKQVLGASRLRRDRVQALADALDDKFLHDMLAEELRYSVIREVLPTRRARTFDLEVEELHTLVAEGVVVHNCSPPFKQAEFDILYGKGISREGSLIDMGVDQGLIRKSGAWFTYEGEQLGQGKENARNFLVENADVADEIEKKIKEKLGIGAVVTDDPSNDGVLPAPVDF
Mtb H37Rv = M. tuberculosis H37Rv growth inhibitors, H37Rv strain (AID 1626) | M. tuberculosis H37Rv growth inhibition; higher % means a stronger effect | inhibition, % at 10 µM, or IC50 in µM where a hit was titrated | actives 0.95% (n = 220,000);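 active = confirmed in a dose series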;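 also: bacteria incubated seven days before Alamar blue readout; 0% = bacteria only wells and 100% = bacteria with antibiotic wells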
Arbovirus inh = antivirals against arbovirus infection | arbovirus infection cell-based antiviral screen | inhibition, % at 10 µM | actives 0.37% (n = 200,000) | AID 1251;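 active = inhibition from about 30%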;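 also: bluetongue infection of BSR cells; cell survival read as ATP light after 72 h; 0% = infected wells without compound and 100% = uninfected wells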
YopH PTP inh = YopH (Yersinia) phosphatase inhibition | fluorescence Ex485/Em525 | actives 0.16% (n = 140,000) | inhibition, %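 (about 10 µM by stock and volumes)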;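 active = inhibition of 50% or more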;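 also: controls were vehicle for no effect and minimum signal wells for full effect; inactives centre near -20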
Arbovirus inh repeat = also measured in Arbovirus inh; calls as there; inhibition, %; measured here: 10K subset replicate screen; many hits read low in the repeat;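 first of two repeat runs on a subset; 0% = infected and 100% = uninfected wells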
Numbers without * were called inactive; / = no result given.

SMILES	Mtb betalactam	RecA splice inh	Mtb H37Rv	Arbovirus inh	YopH PTP inh	others
CN1CCN(S(=O)(=O)c2cccc(C(=O)Nc3cc(Cl)ccc3N3CCOCC3)c2)CC1	9	-0.9	/	/	/
Cc1cc(NC(=O)c2ccc(Cl)cc2)n(CCC#N)n1	2	-2.9	/	/	/
Cc1cccc(C(=O)N/N=C/c2coc3ccccc3c2=O)c1	9	5.1	/	/	/
CCCn1c(SC/C(O)=C(\C#N)c2nc3ccccc3[nH]2)n[nH]c1=O	-3	-1.5	-5%	6	/
COc1ccc(Nc2nc(NCCN3CCOCC3)nc(Nc3ccc(OC)cc3)n2)cc1	15	0.6	/	/	/
O=C(NCc1ccccc1F)C1CCCN1C(=O)Nc1ccccc1 (stereo not drawn)	-26	0.8	/	/	/
CCN1C(=O)[C@H]2[C@@H](c3ccc(C)cc3)N3C(=O)N(c4ccc(OC)cc4)C(=O)[C@@]3(Cc3ccc(Cl)cc3)[C@H]2C1=O	-8	-2.4	/	/	/
CCOC(=O)CC(N)c1ccc2c(c1)OCO2 (stereo not drawn)	2	0.3	-7%	-1	-23
O=C1CC(NS(=O)(=O)c2ccccc2)CN1c1ccc2c(c1)OCCO2 (stereo not drawn)	-4	-1.2	/	/	/
COc1cccc(CN2CCN(CC#Cc3ccccc3)CC2CCO)c1 (stereo not drawn)	2	-1.6	/	/	/
Cc1ccc(NC(=S)NCCN2CCOCC2)cc1C	4	2.5	1%	3	-40
Cc1ccc(C)c(N(C(=O)CNC(=O)c2ccco2)C(C(=O)NC2CCCC2)c2ccncc2)c1 (stereo not drawn)	-7	-2.9	/	/	/
CC(C)Oc1cccc(C(=O)C2CCCN(C(=O)CCn3cnnn3)C2)c1 (stereo not drawn)	-1	1.5	-9%	3	/
Cc1ccc(S(=O)(=O)NC(C)(C)C)cc1C(=O)OCC(=O)N1CCCC1=O	-6	1.5	/	/	/
O=C(CN1CCN(c2ccccn2)CC1)N1CC(O)CO1 (stereo not drawn)	-6	-0.3	0%	-1	/

Quoted at random: 2 entries already listed, in no set order.
SMILES	Mtb betalactam	RecA splice inh	Mtb H37Rv	Arbovirus inh	YopH PTP inh	others
O=C(NCc1ccccc1F)C1CCCN1C(=O)Nc1ccccc1 (stereo not drawn)	-26	0.8	/	/	/
Cc1cccc(C(=O)N/N=C/c2coc3ccccc3c2=O)c1	9	5.1	/	/	/

The main list resumes, starting 5 compounds before the break.
SMILES	Mtb betalactam	RecA splice inh	Mtb H37Rv	Arbovirus inh	YopH PTP inh	others
Cc1ccc(NC(=S)NCCN2CCOCC2)cc1C	4	2.5	1%	3	-40
Cc1ccc(C)c(N(C(=O)CNC(=O)c2ccco2)C(C(=O)NC2CCCC2)c2ccncc2)c1 (stereo not drawn)	-7	-2.9	/	/	/
CC(C)Oc1cccc(C(=O)C2CCCN(C(=O)CCn3cnnn3)C2)c1 (stereo not drawn)	-1	1.5	-9%	3	/
Cc1ccc(S(=O)(=O)NC(C)(C)C)cc1C(=O)OCC(=O)N1CCCC1=O	-6	1.5	/	/	/
O=C(CN1CCN(c2ccccn2)CC1)N1CC(O)CO1 (stereo not drawn)	-6	-0.3	0%	-1	/
COc1ccc([N+](=O)[O-])cc1NC(=O)Nc1ccccc1	-2	-6.4	-3%	-8	-8
NC(=O)c1ccccc1N=Cc1ccccn1	-2	-2.3	-9%	-1	-31
Cc1ccccc1NC(=O)c1cccc(N2C(=O)C3CCC(C)CC3C2=O)c1 (stereo not drawn)	1	2.5	/	/	/
NC(N)=N/N=C/c1cccc([N+](=O)[O-])c1O	3	1.1	1%	-2	/
C=CCn1c(-c2cccnc2Cl)nc2cc(Cl)c(Cl)cc21	0	7.1	10%	3	-17
Cc1nnc(NC(=O)c2c(F)c(F)c(F)c(F)c2F)s1	-12	1.9	-5%	6	-28
CC1CCN(c2nc(N(C)c3ccccc3)nc(N)c2[N+](=O)[O-])CC1	0	-1.6	0%	/	/
Cn1c(CN2CCN(C(=O)c3ccc(F)cc3)CC2)nc2cc([N+](=O)[O-])ccc21	1	0.1	-2%	-1	-33
O=C(COC(=O)c1ccc([N+](=O)[O-])o1)Nc1cccc(S(=O)(=O)N2CCOCC2)c1	-6	-3.4	-3%	-7	1
O=C(CCCCCn1c(=O)[nH]c2ccccc2c1=O)NCCc1c[nH]c2ccccc12	79	0.4	-3%	-5	-6
S=C(NCCSCc1ccc(Cl)cc1)Nc1ccccc1	5	7.9	/	-45	-4
CC1(C)O[C@@H]1COc1c2ccoc2cc2oc(=O)ccc12	3	-3.4	-9%	-7	-26
O=C(CN1CCOCC1)Nc1nc(-c2ccccc2)cs1	-1	-1.2	/	/	/
N#Cc1ccccc1N=C1CCCN1Cc1ccccc1	6	1.3	9%	6	-41	Arbovirus inh repeat=-1
O=C(CSc1nc2ccc([N+](=O)[O-])cc2[nH]1)NCCc1ccccc1	-8	-2.3	2%	17	-9
Fc1ccc(CN2CCCN(Cc3nc(-c4ccc5c(c4)OCO5)no3)CC2)cc1	25	6.3	-9%	-28	/
Cc1ccc(CCNC(=O)C2=CCN(S(=O)(=O)c3ccccc3)CC2)cc1	3	1.0	/	/	/
NC(=S)Nc1cccc(O)c1	-4	-2.4	/	/	/
COc1cc(NC(=O)COC(=O)CC(NC(C)=O)c2ccccc2)cc(OC)c1 (stereo not drawn)	0	-1.4	/	/	/
N#Cc1c(-c2ccc(F)cc2)cc(C2CC2)nc1SCC(=O)c1cccs1	0	-4.5	8%	-11	-22
CN(C)CCCn1c2c(c(SCC(=O)Nc3ccc4c(c3)OCO4)nc1=O)CCC2	-1	2.2	/	/	/
COc1ccc2oc(-c3ccccc3)c(C(=O)N(C)C)c2c1	4	2.9	/	/	/
CC(=O)NCCC(=O)N1CCCC(N(C)CCc2ccccc2)C1 (stereo not drawn)	-1	-4.4	/	/	/
CCn1c(SCC(=O)NCCc2ccc(Cl)cc2)nnc1-c1cccs1	-3	1.3	6%	1	-41
O=C(OCC(=O)N1CCc2ccccc21)C1=COCCO1	95	/	56%	12	-26
CCOC(=O)c1sc2nc(CC(=O)OC)nc(NCCN3CCOCC3)c2c1C	/	-1.1	0%	0	-1
CCOc1ccccc1NC(=O)C(=O)NCC1CCCN1CC (stereo not drawn)	-8	-3.5	1%	9	-14
Clc1nc(Cl)nc(-c2cn(-c3ccccc3)c3ccccc23)n1	-4	-5.5	-6%	/	/
COc1ccc(C2CC(c3ccccc3)Nc3nc(NS(C)(=O)=O)nn32)cc1 (stereo not drawn)	-8	-1.7	3%	/	/
COc1ccc([N+](=O)[O-])c(OC)c1C(=O)Nc1ccc(F)cc1F	-8	0.5	-16%	/	/
O=C(NNS(=O)(=O)c1ccc(F)cc1)c1ccc(S(=O)(=O)N2CCCCC2)cc1	2	1.6	-7%	7	-46
O=C(CN1C(=O)C2CCCCC2C1=O)Nc1nccs1 (stereo not drawn)	-10	-1.1	5%	-1	/
COCCn1c(SCC(=O)Nc2ccc(OC)c(S(N)(=O)=O)c2)nc2ccccc21	-4	1.8	-5%	/	/
C=CCCC(=O)NC1CC(C)(C)Cc2c1cnn2-c1ccc(OC)cc1 (stereo not drawn)	15	-3.1	/	/	/
CC(Oc1ccc([N+](=O)[O-])cc1)C(=O)NCCCN1CCOCC1 (stereo not drawn)	-12	5.9	/	/	/
CC1CC(C)(C)CC2(C1)NC(=O)N(CC(=O)N(Cc1ccccc1)c1ccccc1)C2=O (stereo not drawn)	-10	-0.5	/	/	/
COC(=O)[C@@](C)(O)C1(C(=O)SC(C)(C)C)CC1	0	-0.2	-6%	/	/
CCC(Oc1ccccc1)C(=O)Nc1cc(C(F)(F)F)ccc1N1CCOCC1 (stereo not drawn)	21	18	/	/	/
Cc1ccc(CCNC(=O)C2CCN(S(=O)(=O)c3c(C)nn(C)c3C)CC2)cc1	-11	1.4	-1%	16	-29
Cn1cccc1C(=O)NC(=O)CSc1nnc(C2CC2)n1-c1ccccc1	-13	-0.1	-3%	13	-4
O=C(NCc1ccccn1)C(=O)NCC1OCCN1S(=O)(=O)c1ccc([N+](=O)[O-])cc1 (stereo not drawn)	12	0.0	/	/	/
CN(NS(=O)(=O)c1cccs1)c1ncc(C(F)(F)F)cc1Cl	0	3.0	/	/	/
CC(C)n1cnc2c(=S)nc[nH]c21	0	-3.6	1%	/	/
CC(C)OC(=O)NCN1C(=O)C2C3C=CC(C3)C2C1=O (stereo not drawn)	-5	1.4	-10%	0	21
COc1ccc(-n2nc(C(=O)NCC(=O)N3CCC4(CC3)OCCO4)c3ccccc3c2=O)cc1	1	0.9	/	/	/
CCOc1c2ccc(C(=O)NCc3ccc(C)cc3)cc2nn1CC	5	-0.6	-6%	-1	-27
Cc1cc(-c2cc(-c3ccccc3)on2)nc(NC2CCCC2)n1	22	5.2	6%	/	/
C/C(Cn1nnc([N+](=O)[O-])n1)=N\NC(=O)c1ccc(C)cc1	41	-1.7	10%	-2	-19
CCOC(=O)Cn1nc(C)c2ccccc2c1=O	-14	-1.9	-6%	-4	-43
COc1cccc(/C=C2\C(=O)N(c3cccc(C)c3)C(=O)c3ccccc32)c1	-5	-37	-3%	-6	-22
CCc1ccc(NC(=O)c2onc(C)c2Cl)cc1	-3	1.6	2%	4	-38
COc1ccccc1N1CCN(C2CCN(C(=O)c3ccc(F)cc3)CC2)CC1	-1	1.6	-1%	3	-33
CN1CCC(N2CCN(c3cccc(C(F)(F)F)c3)CC2)CC1	8	-0.3	-10%	-9	-12
COc1ccc(NC(=O)CN(C)C(=O)CSc2nc3ccccc3s2)cc1	-1	2.4	/	/	/
CC1CCN(Cc2nnnn2-c2cccc([N+](=O)[O-])c2)CC1	-6	-1.0	2%	0	-53
Cc1ccccc1CC(=O)N1CCOCC1	-6	0.4	/	/	/
Cn1c(=O)[nH]c(=O)c2c1nc(N(CCO)Cc1ccccc1)n2Cc1ccccc1Cl	12	0.8	-8%	3	-23
CCn1cc(C(=O)O)c(=O)c2cnc(N3CCN(C(=S)Nc4ccccc4C(F)(F)F)CC3)nc21	-1	-4.7	-8%	/	/
COc1ccc(S(=O)(=O)N(C)CC(=O)Nc2c(F)cccc2F)cc1	1	-5.7	6%	2	-15
O=C(NC1=NCCS1)Nc1ccccc1	-2	-0.2	-2%	-4	-37
The list goes on:
SMILES	Mtb betalactam	RecA splice inh	Mtb H37Rv	Arbovirus inh	YopH PTP inh	others
CCN(C(=O)CN1CCN(C)CC1)c1cccc2ccccc12	-13	2.2	5%	-1	-10
O=C(/C=C\c1ccc2c(c1)OCO2)NC1(C(=O)Nc2ccc3c(c2)OCO3)CCCCC1	-1	3.5	3%	-1	3
O=C(Nc1ccncc1)Nc1ccccc1Cl	7	1.1	/	/	/
CCOc1cc(/C=C/c2nc3cc(C)c(C)cc3s2)ccc1OCC(=O)N1CCOCC1	41	-3.6	-1%	-8	-26
CCOC(=O)C1CCN(C(=O)CCc2c(C)nc3cc(-c4ccccc4)nn3c2C)CC1	3	-0.2	0%	3	-43
COc1ccc(/C=C/C(=O)N2CCOCC2)cc1OC	-1	0.0	/	/	/
O=C(NCCCN1CCOCC1)C1CCN(S(=O)(=O)c2cccc(Cl)c2Cl)CC1	1	-2.5	/	/	/
CCN(C(=O)c1ccco1)c1nnc(-c2ccc(OC)cc2)s1	-4	1.0	-10%	-18	-25
O=C(COC(=O)/C=C/c1cccc(F)c1)NNC(=O)c1ccccc1	0	2.2	/	0	/
CCCC[C@@H]1CNC(=S)N1CCc1cccc2ccccc12	8	5.2	-3%	26	/
Cc1ccc(S(=O)(=O)N2CCN(C(=O)COC(=O)Cc3ccccc3)CC2)c(C)c1	-1	-1.6	/	/	/
NC(=O)c1ccccc1Nc1nc2nc3ccccc3c(=O)n2cc1Br	2	-1.3	4%	/	/
COc1ccc(C2C3=C(CC(C)(C)CC3=O)Oc3ncn(CC(C)C)c(=N)c32)cc1 (stereo not drawn)	-12	-1.6	4%	-8	-22
O=C1C(C=NCCN2CCOCC2)=C(O)c2ccccc21	5	2.0	0%	3	-24	Arbovirus inh repeat=-2
Cn1c(Cn2c(=O)sc3ccccc32)nnc1SCc1cccc(F)c1	3	0.7	6%	-1	-43	Arbovirus inh repeat=-4
Cc1nc2ncccn2c1-c1csc(Nc2ccc(O)cc2)n1	/	-5.2	1%	-10	/
C/C(Cn1nnc([N+](=O)[O-])n1)=N\NC(=O)c1ccc(O)cc1O	12	-5.5	3%	-18	-17
O=C(COC(=O)c1cccc(OC(F)F)c1)NC1CCCC1	8	-0.7	/	/	/
CC(=O)c1ccc(OCCCCCCCOc2ccc(C(C)=O)cc2)cc1	6	-1.7	/	/	/
Nc1c(-c2ccc(Cl)cc2)cnc2c(-c3ccccc3)cnn12	-7	0.4	/	/	/
Cc1csc(=O)n1CCC(=O)O	-8	0.6	-9%	1	-38
CCc1nnc(NC(=O)c2ccc3c(c2)C(=O)N(CC)C3=O)s1	2	/	-4%	6	-25

Only part of the results is shown. The share of hits here may be higher or lower than overall.
